Assay outcomes: PubChem, Broad Institute
Hedgehog inh: Hedgehog pathway signaling inhibitors, primary screen, luminescence, Shh-LIGHT2 cells, Gli-luciferase; inhibition, % (test concentration not listed); Shh-LIGHT2 Gli-luciferase reporter, 30 h; hit rate 2.1% among 22,000;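 active = replicate mean of 65% or more; inconclusive = mean lower but half the replicates past it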;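 note: pathway switched on by Shh-conditioned medium diluted 1 in 25 in low serum; 100 nL library stock added to about 40 µL; 0% = median of neutral wells and 100% = positive control level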
PD-1 reverse act: activators reversing PD-1 mediated T-cell inhibition, primary screen, luminescence, primary human CD4 T cells, PD-L1 beads; 29,000 tested, under 10 active; CellTiter-Glo 96 h; activation, % (no concentration beside the values); AID 2316, 2010;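 active = replicate mean of 50% or more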;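 note: 0% = median vehicle wells and 100% = positive control; 100 nL library stock added to about 50 µL; numbers are from one replicate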
YB-1 expr inh: inhibitors of YB-1 gene expression, primary screen, cell-based, fluorescence | U2OS, qRT-PCR YB-1 vs CDIP delta delta Cp, 16 h; stronger effect = higher value; zero = DMSO, each unit about twofold | delta delta Cp (YB-1 minus CDIP) (test concentration not listed) | hit rate 0.37% among 30,000 | AID 434959, 2010;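 active = delta delta Cp rounded down to an integer at or above 3, about 3 SD of DMSO wells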;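 note: higher means less YB-1 transcript or more CDIP transcript relative to DMSO; stock transfer was 100 nL into about 100 µL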
MITF inhib: inhibitors of MITF, primary screen, MITF inhibitor project, cell-based, luminescence; TRPM1 promoter luciferase, 24 h; inhibition, % (test concentration not listed); hit rate 0.28% among 37,000; AID 2240, 2010;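 active = most replicates at 85% or more, or half of them and the mean; inconclusive = half reach 85% but not the mean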;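 note: human melanocyte line stably carrying TRPM1 promoter luciferase reporter; 0% = vehicle wells and 100% = a positive control; the first replicate is given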
Starred values were filed as active, the others as inactive; u = inconclusive; x = no result given.

SMILES	Hedgehog inh	PD-1 reverse act	YB-1 expr inh	MITF inhib
Cc1noc(C)c1S(=O)(=O)Nc1ccc2c(c1)C(=O)N([C@H](C)CO)C[C@H](C)[C@H](CN(C)C(=O)NC1CCCCC1)OCCCC[C@@H](C)O2	27.5	1.7	0.0675	3.9
C[C@@H]1CCCCO[C@H](CN(C)Cc2ccc3c(c2)OCO3)[C@@H](C)CN([C@H](C)CO)C(=O)c2cc(NC(=O)Cc3ccccc3)ccc2O1	-3.0	0.0	0.388	-3.3
CC(C)NCC(O)COc1ccc(CC(N)=O)cc1 (stereo not drawn)	-42.4	x	-0.00734	-13.4
Cc1noc(C)c1NC(=O)Nc1cccc2c1O[C@H](CN(C)Cc1ccc(Cl)c(Cl)c1)[C@H](C)CN([C@@H](C)CO)C2=O	-14.3	0.9	-0.0388	-18.5
Cc1ccc(NC(=O)C(C)Sc2nnc(-c3cccc([N+](=O)[O-])c3)n2C)cc1 (stereo not drawn)	x	1.6	x	-13.4
C[C@@H]1CN([C@@H](C)CO)C(=O)c2cc(N(C)C)ccc2O[C@@H]1CN(C)Cc1ccccc1	-22.4	0.6	-0.365	6.3
CS(=O)(=O)N(CC(=O)Nc1ccc(F)cc1)c1ccccc1	x	1.3	x	-69.8
C[C@@H]1CN([C@H](C)CO)C(=O)c2cc(NC(=O)C3CC3)ccc2O[C@@H]1CN(C)C(=O)Nc1ccc(F)cc1	-26.7	-0.6	-0.414	-9.7
CC(C)NC(=O)N(C)C[C@@H]1Oc2ccc(NC(=O)CCN3CCOCC3)cc2CC(=O)N([C@@H](C)CO)C[C@@H]1C	-11.4	0.5	0.102	1.5
Cc1cc(C)c(O)c(C(=O)CC2CC(=O)NC(=O)C2)c1	1.3	-0.1	0.356	-21.4
CCN(CC)CCOC(=O)C1(c2ccc([N+](=O)[O-])cc2)CCCC1	-8.7	x	0.349	15.3
C[C@@H]1CN([C@@H](C)CO)C(=O)c2cc(NS(=O)(=O)c3cn(C)cn3)ccc2O[C@H]1CN(C)C(=O)Nc1ccccc1	-49.5	x	0.123	-1.8
O=C(N(c1ccccc1)c1ccc(F)cc1)C12CC3CC(CC(C3)C1)C2	x	0.2	-1.2	-8.7
C[C@@H]1CN([C@H](C)CO)C(=O)Cc2cc(NC(=O)C3CCCCC3)ccc2O[C@@H]1CN(C)C(=O)Nc1ccccc1	-21.6	x	-0.17	-2.0
Cc1ccc(S(=O)(=O)Nc2ccc3c(c2)C(=O)N([C@@H](C)CO)C[C@@H](C)[C@@H](CN(C)Cc2ccncc2)O3)cc1	x	0.4	-0.492	-3.5
C[C@H](CO)N1C[C@H](C)[C@H](CN(C)CC2CC2)Oc2ccc(NC(=O)Nc3ccc(F)cc3)cc2CC1=O	-0.1	x	0.133	-2.1
CC(C)Cc1nc(SC(C)C(=O)Nc2cccc(Cl)c2)n[nH]1 (stereo not drawn)	x	-0.2	x	0.2
C[C@H]1CN([C@@H](C)CO)C(=O)Cc2cc(N(C)C)ccc2O[C@@H]1CN(C)S(=O)(=O)c1ccc(F)cc1	6.1	-2.9	0.376	-9.7
CCOC(=O)c1c(NC(=O)CSc2nc(C)cc(C(F)(F)F)n2)sc2c1CCCC2	x	2.1	x	-7.3
C[C@H](CO)N1C[C@H](C)[C@@H](CN(C)S(=O)(=O)c2cccs2)Oc2c(NC(=O)C3CC3)cccc2C1=O	-16.9	0.7	0.3	-8.0
C[C@H]1CN([C@@H](C)CO)C(=O)c2cccc(NS(=O)(=O)c3ccc(Cl)cc3)c2O[C@H]1CN(C)S(=O)(=O)c1cccs1	-6.1	-1.4	-0.0557	-4.4
CC(C)(C)c1ccc(Oc2ccc(NC(=O)C3CC=CCC3C(=O)O)cc2)cc1 (stereo not drawn)	x	0.6	x	-8.6
C[C@@H]1CN([C@@H](C)CO)C(=O)c2cc(NS(=O)(=O)c3ccccc3)ccc2O[C@H]1CN(C)S(=O)(=O)c1cn(C)cn1	0.4	0.3	-0.169	-0.1
Cc1ccccc1NC(=O)Cn1cnc2sc(C)c(C)c2c1=O	x	-0.3	x	5.9

Random excerpt: three compounds from above
SMILES	Hedgehog inh	PD-1 reverse act	YB-1 expr inh	MITF inhib
Cc1ccc(S(=O)(=O)Nc2ccc3c(c2)C(=O)N([C@@H](C)CO)C[C@@H](C)[C@@H](CN(C)Cc2ccncc2)O3)cc1	x	0.4	-0.492	-3.5
CCOC(=O)c1c(NC(=O)CSc2nc(C)cc(C(F)(F)F)n2)sc2c1CCCC2	x	2.1	x	-7.3
Cc1ccccc1NC(=O)Cn1cnc2sc(C)c(C)c2c1=O	x	-0.3	x	5.9

Next part:
SMILES	Hedgehog inh	PD-1 reverse act	YB-1 expr inh	MITF inhib
Cc1ccc2nc(Nc3ccccc3)cc(C)c2c1	72.3*	-0.8	-0.322	6.6
C[C@@H]1CN([C@H](C)CO)C(=O)c2cc(NS(=O)(=O)c3ccc(Cl)cc3)ccc2O[C@@H]1CN(C)Cc1ccc(-c2ccccc2)cc1	x	-0.6	-0.14	26.2
C[C@@H]1CN([C@@H](C)CO)C(=O)c2cc(NC(=O)NC3CCCCC3)ccc2O[C@@H]1CN(C)S(=O)(=O)c1cccs1	x	-2.2	0.192	-12.0
Cc1cc(N(CC(=O)NC2CCCCC2)S(C)(=O)=O)ccc1Br	x	-0.9	x	-1.5
CC(=O)NCCOc1nc(N(C)C)nc(N2CCOCC2)n1	x	0.9	x	-14.9
COC(=O)C1c2ccccc2Oc2ccccc21	-27.0	-0.8	-0.579	5.5
CCCN1C(=O)C(O)(CC(=O)c2ccc(OC)c([N+](=O)[O-])c2)c2cc(Br)ccc21 (stereo not drawn)	x	-12.4	x	1.5
O=C(CSc1nnc(-c2ccncc2)n1-c1ccccc1)Nc1ccc(Br)cc1	x	-3.7	x	34.5
Cc1nn(CC(N)=S)c(C)c1Br	-8.0	0.5	-0.188	-5.8
Cc1c(NC(=O)COc2ccc(Cl)cc2Cl)cccc1-c1nc2cc(Cl)ccc2o1	x	-1.4	x	-12.0
CC(C)NC(=O)N(C)C[C@@H]1Oc2c(NS(C)(=O)=O)cccc2C(=O)N([C@H](C)CO)C[C@H]1C	-16.7	1.7	-0.497	6.3
CC(=O)Nc1ccccc1NC(=O)CCN1C(=O)c2ccccc2C1=O	x	3.8	x	-7.5
C=C(CCCCCCCC(=O)O)C(=O)OC	-16.4	3.0	-0.251	-3.4
CS(=O)(=O)N(CC(=O)Nc1ccc(I)cc1)c1ccc(Cl)c(Cl)c1	x	-7.2	x	u
C[C@@H]1CN([C@@H](C)CO)C(=O)c2cc(NC(=O)NC3CCCCC3)ccc2O[C@H]1CN(C)CC1CCCCC1	x	1.7	-0.131	-2.8
COc1ccc(S(=O)(=O)N(C)C[C@@H]2Oc3ccc(NC(=O)C4CC4)cc3CC(=O)N([C@H](C)CO)C[C@@H]2C)cc1	-26.2	-0.9	0.269	-5.6
C[C@@H]1CCCCO[C@@H](CN(C)C(=O)Nc2ccccc2)[C@@H](C)CN([C@H](C)CO)C(=O)c2cc(NS(=O)(=O)c3ccc(Cl)cc3)ccc2O1	24.4	0.7	-0.271	18.3
C[C@H]1CN([C@@H](C)CO)C(=O)c2cc(NC(=O)Cc3ccccc3)ccc2O[C@@H]1CN(C)Cc1ccc(C(=O)O)cc1	-7.6	1.6	0.75	-7.0
C[C@@H]1CN([C@@H](C)CO)C(=O)c2cccc(NC(=O)c3ccc(-c4nccs4)cc3)c2O[C@@H]1CN(C)Cc1ccc(Cl)c(Cl)c1	19.7	-2.6	0.0712	20.4
CCCN(C)C[C@@H]1OCCCC[C@@H](C)Oc2ccc(NC(=O)CCCCCC(=O)Nc3ccccc3N)cc2C(=O)N([C@H](C)CO)C[C@@H]1C	x	1.3	-0.625	-9.8
C[C@@H]1CN([C@@H](C)CO)C(=O)c2cc(NC(=O)NC3CCCCC3)ccc2O[C@H]1CN(C)C(=O)Nc1ccc(F)cc1	-27.8	-0.7	0.0651	-14.1
C[C@H](CO)N1C[C@H](C)[C@@H](CN(C)Cc2ccccc2)Oc2ccc(NC(=O)Nc3ccccc3)cc2C1=O	x	2.7	-0.469	1.6
Cc1noc(C)c1NC(=O)N(C)C[C@@H]1Oc2ccc(NS(=O)(=O)c3ccc(F)cc3)cc2C(=O)N([C@H](C)CO)C[C@H]1C	-50.9	1.6	0.3	-7.1
CC(=O)c1cccc(NC(=O)CNS(=O)(=O)c2ccc(Cl)cc2)c1	x	0.3	x	-4.2
N#CCCSc1nnc(-c2ccncc2)n1Cc1ccccc1	x	1.6	x	-24.7
COc1ccc(NC(=O)N(C)C[C@@H]2Oc3ccc(NC(=O)Nc4ccc5c(c4)OCO5)cc3C(=O)N([C@H](C)CO)C[C@H]2C)cc1	-23.0	-0.4	-0.589	-0.7
COCCCC/C(=N\OCCN)c1ccc(C(F)(F)F)cc1	-9.9	x	0.429	23.9
COc1ccc2c(C)cc(=O)oc2c1	-52.1	x	0.0381	-8.8
CNC[C@H]1Oc2ccc(NC(=O)Cc3cn(C)c4ccccc34)cc2C(=O)N([C@@H](C)CO)C[C@H]1C	-6.8	0.1	-0.0136	2.1
O=C(CSc1nnc(-c2ccccc2)n1-c1ccccc1)Nc1c(F)cc(F)cc1Br	x	1.4	x	31.3
C[C@@H]1O[C@@H](O[C@H]2[C@H](O)[C@@H](O)[C@H](O[C@H]3[C@H](O[C@H]4CC[C@@]5(C)C(=CC[C@H]6C7C[C@@H]8O[C@]9(CC[C@@](C)(CO[C@@H]%10O[C@H](CO)[C@@H](O)[C@H](O)[C@H]%10O)O9)[C@H](C)C8[C@@]7(C)CCC65)C4)O[C@H](CO)[C@@H](O)[C@@H]3O)O[C@@H]2CO)[C@H](O)[C@H](O)[C@H]1O (stereo partly drawn)	97.2*	x	0.148	x
C[C@H](CO)N1C[C@H](C)[C@H](CN(C)CC2CCCCC2)Oc2ccc(NC(=O)c3ccncc3)cc2C1=O	-43.3	-0.5	0.264	-6.9
COc1ccc(NC(=O)Nc2cccc3c2O[C@@H](CN(C)Cc2ccc4c(c2)OCO4)[C@@H](C)CN([C@@H](C)CO)C3=O)cc1	-8.1	0.7	-0.315	-2.8
COc1ccc(C2C(=O)c3cc(OC)c(OC)cc3C2c2ccccc2)cc1OC (stereo not drawn)	9.9	0.2	0.432	-6.8
Cc1noc(C)c1NC(=O)N(C)C[C@H]1Oc2c(NS(=O)(=O)c3cn(C)cn3)cccc2C(=O)N([C@H](C)CO)C[C@H]1C	-52.9	2.9	-0.131	-1.1
N#Cc1ccc(CSc2nc(-c3cccs3)c3c(c2C(=O)O)CCCC3)cc1	u	4.2	0.354	-8.0
C[C@@H]1CN([C@@H](C)CO)C(=O)Cc2cc(NC(=O)C3CCCCC3)ccc2O[C@@H]1CN(C)Cc1ccc(C(F)(F)F)cc1	13.2	-0.4	-0.0458	-8.9
COc1cc(C[C@@H]2CO[C@@H](c3ccc(O)c(OC)c3)[C@@H]2CO)ccc1O	-5.4	1.3	0.223	-6.9
Cc1ccc(-c2csc3nnc(SCC(=O)Nc4ccc5c(c4)OCCO5)n23)cc1	x	1.4	x	20.8
CC(C)NC(=O)Nc1ccc2c(c1)C(=O)N([C@@H](C)CO)C[C@@H](C)[C@H](CN(C)C(=O)NC(C)C)O2	-26.6	1.1	-0.155	9.7
CN(c1ccccc1C(=O)NCc1ccccn1)S(C)(=O)=O	x	-1.9	x	2.8
Cc1noc(C)c1S(=O)(=O)Nc1ccc2c(c1)C(=O)N([C@H](C)CO)C[C@@H](C)[C@@H](CN(C)C(=O)Nc1cccc3ccccc13)O2	-36.3	-0.6	0.0695	-7.9
CCCCCc1c2c(cc(O)c1C(=O)O)OC(=O)c1c(cc(OC)cc1C(=O)CCCC)O2	-31.2	x	-0.132	-4.0
CCOC(=O)c1oc2nc(-c3ccco3)cc(-c3ccco3)c2c1N	x	-1.1	0.18	-18.5
C[C@@H]1CN([C@@H](C)CO)C(=O)Cc2cc(N(C)C)ccc2O[C@@H]1CN(C)CC1CC1	x	0.5	-0.325	16.3
Cc1noc(C)c1NC(=O)Nc1ccc2c(c1)CC(=O)N([C@H](C)CO)C[C@H](C)[C@H](CN(C)C(=O)Nc1c(C)noc1C)O2	-10.0	-1.0	0.31	4.5
CC(C)NC(=O)N(C)C[C@H]1Oc2ccc(NS(=O)(=O)c3ccccc3)cc2CC(=O)N([C@H](C)CO)C[C@H]1C	22.8	0.5	-0.126	-9.7
NC(=O)CSc1nc2c(c(=O)n1CCc1ccccc1)C1(CCCCC1)Cc1ccccc1-2	x	-4.7	x	-23.8
Cc1ccc(S(=O)(=O)N(C)C[C@@H]2Oc3c(NC(=O)c4cnccn4)cccc3C(=O)N([C@@H](C)CO)C[C@@H]2C)cc1	23.3	-0.6	-0.0391	-56.0
C/C=C1\CC(C)(CC)C(C#N)(C#N)C(N)=C1C#N (stereo not drawn)	-0.3	-9.0	-0.779	19.2
CC(C)NC(=O)N(C)C[C@@H]1OCCCC[C@@H](C)Oc2ccc(NC(=O)Cc3ccccc3)cc2C(=O)N([C@H](C)CO)C[C@@H]1C	-8.1	-0.8	-0.339	-12.3

These rows are one share of the data. The share of hits here may be higher or lower than overall.
